Assay outcomes as filed in PubChem BioAssay.
Methyltransferases = Primary Screen for Target Class Profiling of Small Molecule Inhibitors of Methyltransferases | purified enzyme, MTase-Glo SAH luminescence; stronger effect = lower value | calls only at 40 µM | 3.9% of 25,000 active | AID 1745853, 2022; active = -50% or lower on at least one of six enzymes; inconclusive = the cases between; inactive = as a rule above -30% on all six;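 further: enzymes were COMT GAMT GNMT HNMT NNMT and PNMT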
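Each enzyme was reacted with SAM and its substrate, with compounds tested once at 40 uM; SAH formed was read by MTase-Glo luminescence.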
Calls only; i = inactive; ? = inconclusive; + = active, no number. On the % scale 0 is the no-effect control and ±100 the full control effect. Some of the compounds tested (hit frequency here may not be typical).

SMILES | Methyltransferases
COc1ccccc1CNC(=O)C1c2c(n(C)c3ccccc23)SCC(=O)N1c1ccc2c(c1)OCCO2 (stereo not drawn) | i
C[C@H](NC(c1cccc(C[P+](=O)O)c1)[C@H](C)O)c1ccc(Cl)c(Cl)c1 (stereo partly drawn) | i
O=C(Nc1n[nH]c(Cc2ccccc2)n1)N1CCN(C(=O)c2ccco2)CC1 | i
COC(=O)[C@@]1(O)C=CC[C@@H]2[C@@]3(C)C[C@@H](c4ccoc4)OC(=O)[C@H]3CC[C@]21C | i
CN1CCN(C2CCC(n3cc(-c4ccc(Oc5ccccc5)cc4)c4c(N)ncnc43)CC2)CC1 (stereo not drawn) | +
CC1CC(C)CN(S(=O)(=O)c2ccc3c(c2)oc(=O)n3CC(=O)NCCCOC(C)C)C1 (stereo not drawn) | i
CC(=O)[C@@H]1CC[C@]2(C(=O)O)CC[C@]3(C)C(CCC4[C@@]5(C)CC[C@H](O)C(C)(C)C5CC[C@]43C)C12 (stereo partly drawn) | i
CN1C(=O)c2cc(C(=O)NCc3ccc(Cl)cc3)nn2CC1(C)C(=O)NC1CCCC1 (stereo not drawn) | i
NC(=O)c1ncn([C@@H]2O[C@H](CO)[C@@H](O)[C@H]2O)c1O | i
CC(C)CCNC(=O)C1(C)Cn2nc(C(=O)N3CCN(c4ccccc4F)CC3)cc2C(=O)N1C (stereo not drawn) | i
CC(C)CNC(=O)c1ccc2c(=O)n(C)c3nn(CC(=O)Nc4ccc(C(C)C)cc4)c(=O)n3c2c1 | i
CCOC(=O)c1cc2n(n1)CC(C)(C(=O)NC1CCCC1)N(c1ccc(OC)cc1OC)C2=O (stereo not drawn) | i
COc1ccc(Cn2c(=O)c3ccccc3n3c(-c4ccc(OC)cc4)nnc23)cc1 | i
CCc1cc2c(cc3n2CC(C)(C(=O)NC2CCCCC2)N(c2ccc(C(C)C)cc2)C3=O)s1 (stereo not drawn) | i
CCOc1ccccc1NC(=O)c1ncn2c1C(=O)N(C1CC1)C(C)(C(=O)NC1CCCC1)C2 (stereo not drawn) | i
Cc1cccc(-c2ncc(CN(CCC(N)=O)Cc3ccccc3)cn2)c1 | i
Cc1ccccc1NC(=O)Cn1nc2n(CC(C)C)c(=O)c3ccc(C(=O)NC4CCCC4)cc3n2c1=O | i
CCC(C)NC(=O)Cn1nc2n(Cc3ccccc3)c(=O)c3ccc(C(=O)NC4CCCC4)cc3n2c1=O (stereo not drawn) | i
CCc1noc(-c2cn(C3CCN(C(=O)Cc4cccc(OC)c4)CC3)nn2)n1 | i
CC(C)Cn1c(=O)c2ccccc2n2c(SCC(=O)N3CCN(c4ccccc4F)CC3)nnc12 | i
Cc1cccc(CNC(=O)Cn2ccc3cc(S(=O)(=O)N4CCC(C)CC4)ccc32)c1 | i
Cc1ccc(Cl)cc1N1C(=O)c2cc3sccc3n2CC1(C)C(=O)NC1CCCCC1 (stereo not drawn) | i
CC1(C(=O)NC2CCCCCC2)Cn2c(ccc2-c2ccco2)C(=O)N1CCCN1CCCCC1 (stereo not drawn) | i
CCCN1C(=O)c2c(C(=O)Nc3c(C)cc(C)cc3C)ncn2CC1(C)C(=O)NC1CCCC1 (stereo not drawn) | i

Gathered by group, the entries above containing a thiophene ring, fused or not (two)
SMILES | Methyltransferases
CCc1cc2c(cc3n2CC(C)(C(=O)NC2CCCCC2)N(c2ccc(C(C)C)cc2)C3=O)s1 (stereo not drawn) | i
Cc1ccc(Cl)cc1N1C(=O)c2cc3sccc3n2CC1(C)C(=O)NC1CCCCC1 (stereo not drawn) | i

(listing goes on)
SMILES | Methyltransferases
COc1ccccc1NC(=O)OCC1CCN(C(=O)OC(C)(C)C)CC1 | i
CCC(=O)N(C1CCOCC1)C1CCN(Cc2ccc[nH]2)CC1 | i
CCCn1c(=O)c(C)cn2nc(N)nc12 | i
COc1ccccc1CNC(=O)C1c2c(n(C)c3ccccc23)SCC(=O)N1CCc1ccc(Cl)cc1 (stereo not drawn) | i
C[n+]1cc2c3c(ccc2c2ccc4cc5c(cc4c21)OCO5)OCO3 | +
CCCCc1nc2c3ccccc3n(CC(=O)N3CCN(c4ccccc4OC)CC3)c(=O)n2n1 | i
COCC1CN(C)CC12CCN(S(=O)(=O)Cc1ccc(F)cc1)CC2 (stereo not drawn) | i
Cn1c(=O)c(-c2c(Cl)cccc2Cl)cc2cnc(Nc3ccc(N4CCOCC4)cc3)nc21 | i
Cc1cccc(N2C(=O)c3cc4occc4n3CC2(C)C(=O)NC2CCCCCC2)c1C (stereo not drawn) | i
Cc1ccc(S(=O)(=O)c2nnn3c2nc(NCc2ccccc2)c2ccccc23)cc1C | i
COC(=O)C(Cc1c[nH]c2ccccc12)NC(=O)c1cc(-c2ccc(OC)c(OC)c2)oc1C (stereo not drawn) | i
CCOc1ccccc1CNC(=O)Cn1ccc2cc(S(=O)(=O)N3CCCC3)ccc21 | i

Six records picked at random from those above, as already listed:
SMILES | Methyltransferases
Cn1c(=O)c(-c2c(Cl)cccc2Cl)cc2cnc(Nc3ccc(N4CCOCC4)cc3)nc21 | i
Cc1cccc(N2C(=O)c3cc4occc4n3CC2(C)C(=O)NC2CCCCCC2)c1C (stereo not drawn) | i
CCC(=O)N(C1CCOCC1)C1CCN(Cc2ccc[nH]2)CC1 | i
Cc1ccc(S(=O)(=O)c2nnn3c2nc(NCc2ccccc2)c2ccccc23)cc1C | i
COC(=O)C(Cc1c[nH]c2ccccc12)NC(=O)c1cc(-c2ccc(OC)c(OC)c2)oc1C (stereo not drawn) | i
COc1ccccc1CNC(=O)C1c2c(n(C)c3ccccc23)SCC(=O)N1CCc1ccc(Cl)cc1 (stereo not drawn) | i

Other results follow.
SMILES | Methyltransferases
COc1ccc(CNC(=O)C2(C)Cn3cnc(C(=O)Nc4ccc(Cl)cc4F)c3C(=O)N2C2CC2)cc1 (stereo not drawn) | i
CC1=C2C[C@@]3(C)C(CCC[C@@H]3C)C(O)C2OC1=O (stereo partly drawn) | i
O=C(CCc1nnc2n(Cc3ccccc3Cl)c(=O)c3ccccc3n12)N1CCN(c2ccccc2F)CC1 | i
CCc1ccc(S(=O)(=O)Nc2ccc3c(c2)n(C)c(=O)n3C)cc1 | i
O=C(Nc1cccc(F)c1)N1CCn2cccc2C1Cc1ccccc1 (stereo not drawn) | i
C=C(C)C1CCC2(C(=O)OC3OC(COC4OC(CO)C(O)C(O)C4O)C(OC4OC(C)C(O)C(O)C4O)C(O)C3O)CCC3(C(=O)O)C(CCC4C5(C)CCC(=O)C(C)(C)C5CCC43C)C12 (stereo not drawn) | i
Cc1cccc(NC(=O)Cn2c(=O)oc3cc(S(=O)(=O)NCc4ccccc4)ccc32)c1C | i
CCCn1c(=O)c2cc(Cl)ccc2n2c(=O)n(CC(=O)c3ccc(OC)c(OC)c3)nc12 | i
CC1CCCC(NC(=O)C2(C)Cn3c(ccc3-c3ccco3)C(=O)N2Cc2cccnc2)C1C (stereo not drawn) | i
CC(C)CCNC(=O)C1(C)Cn2c(nc3ccccc32)C(=O)N1CCc1ccc(Cl)cc1 (stereo not drawn) | i
Cc1ccc(C)c(C(=O)Cn2nc3n(CC(C)C)c(=O)c4ccc(C(=O)NC(C)C)cc4n3c2=O)c1 | i
O=C(O)c1ccnc2cc(C(OCCCN3CCCCC3)c3ccccc3Cl)[nH]c12 (stereo not drawn) | ?
COc1ccc(NC(=O)CCc2nnc3n(Cc4ccc(C)cc4)c(=O)c4ccccc4n23)cc1OC | i
CN1CCC(Nc2nc(Nc3ccc(Oc4ccccc4)cc3)c3c(=O)[nH]cc(Br)c3n2)CC1 | ?
Cc1nc(C2CCCN(C(=O)C(C)(C)N)C2)cc(N2CCOCC2)n1 (stereo not drawn) | i
CCN1CCN(C(=O)c2cn3cc(-c4cccnc4)sc3n2)CC1 | i
O=C(Nc1ccn(Cc2c(F)cccc2C(F)(F)F)n1)c1c(F)cccc1F | i
NS(=O)(=O)c1ccc(C(=O)NC(Cc2ccncc2)C2CC(O)C2)cc1 (stereo not drawn) | i
CCC(=O)N[C@@H]1Cc2ccccc2[C@H](c2ccccc2)C1 | i
CC1CCN(C(=O)C2(c3ccc(NC(=O)C4CC4)cc3)CCCCC2)CC1 | i
C=C1C[C@]23C[C@H]1CC[C@H]2[C@]1(C)CCC[C@@]2(CO)C(=O)O[C@H]([C@H]21)[C@@H]3O | i
CN(C)c1cc(CC2CC(=O)N(c3ccccc3)C2)ncn1 (stereo not drawn) | i
Cc1ccccc1-c1cnc2[nH]cc(CC(=O)N3CCOCC3)c2c1 | i
CCC(C)NC(=O)c1ccc2c(=O)n(C(C)C)c3nn(Cc4ccc(C)cc4)c(=O)n3c2c1 (stereo not drawn) | i
CCCn1c(=O)c2ccc(C(=O)NC3CCCCC3)cc2n2c(=O)n(CC(=O)NC3CCCCC3)nc12 | i
Cc1ccc(CNC(=O)N2CCC(c3nc(CCOCC4CCOCC4)no3)C2)cc1 (stereo not drawn) | i
CCOC(=O)c1cc2n(n1)CC(C)(C(=O)NCc1ccc(F)cc1)N(Cc1ccc(F)cc1)C2=O (stereo not drawn) | i
CC1(C(=O)NC2CCCCCCC2)Cc2ccccc2C(=O)N1C1CCCCCC1 (stereo not drawn) | i
CCOC(=O)c1cc2n(n1)CC(C)(C(=O)NC1CCCCCC1)N(c1ccc(C)c(Cl)c1)C2=O (stereo not drawn) | i
O=C(CCc1nnc2n(CCc3ccccc3)c(=O)c3ccccc3n12)NCc1ccccc1Cl | i
CCOc1ccc(-c2cc3n(n2)CC(C)(C(=O)NCCC(C)C)N(Cc2ccc(OC)cc2)C3=O)cc1 (stereo not drawn) | i
CC1(C(=O)NC2CCCCCCC2)Cn2c(ccc2-c2ccccc2)C(=O)N1CCc1ccccc1 (stereo not drawn) | i
Cc1ccccc1CNC(=O)C1(C)Cc2ccccc2C(=O)N1Cc1cccc(C(F)(F)F)c1 (stereo not drawn) | i
COc1ccccc1CNC(=O)C1(C)Cn2nc(-c3ccccc3)cc2C(=O)N1c1cccc(Cl)c1 (stereo not drawn) | i
O=C(Nc1cccc(Cl)c1)N1Cc2c(sc3c2CCCC3)-n2cccc2C1c1ccccc1 (stereo not drawn) | i
COc1cc2c(cc1O)C1(OC)Cc3ccc4c(c3C1N(C)CC2)OCO4 (stereo not drawn) | i
CC(O)C1CCC2C3CCC4CC(OC5OC(C(=O)O)C(O)C(O)C5O)CCC4(C)C3CCC12C (stereo not drawn) | ?
CC[C@H](Nc1ncnc2nc[nH]c12)c1nc2cccc(F)c2c(=O)n1-c1ccccc1 | i
CC(C)NC(=O)c1ccc2c(=O)n(Cc3ccccc3)c3nn(Cc4c(F)cccc4Cl)c(=O)n3c2c1 | i
CCC(C)NC(=O)c1ccc2c(=O)n(C)c3nnc(SCC(=O)c4ccc(F)cc4)n3c2c1 (stereo not drawn) | i
CC1=NOC2(CCN(Cc3ccc(N(C)C)cc3)C2)C1 (stereo not drawn) | i
COc1cc(C(C)=O)c(OC)c2c1OC(C)(C)C=C2 | i
Cc1nn(-c2ccccc2)c2c1C(C)N(C1CCN([S+](=O)([O-])c3ccccc3)CC1)C2=O (stereo not drawn) | i
O=C(NC1CCCC1)C1c2sc3ccccc3c2CC(=O)N1CCc1ccc(Cl)cc1 (stereo not drawn) | i
COc1ccc(CNC(=O)c2cc3n(n2)CC(C)(C(=O)NCc2ccc(F)cc2)N(C)C3=O)c(OC)c1 (stereo not drawn) | i
CCOC(=O)Cc1ccc(NC(=O)N2Cc3c(sc4c3CCCC4)-n3cccc3C2c2ccc(F)cc2)cc1 (stereo not drawn) | i
O=S(=O)(c1ccccc1)c1nnn2c1nc(NC1CCN(Cc3ccccc3)CC1)c1ccccc12 | i
CCCNC(=O)NCCc1ncc(C)n1CC1CC1 | i
Cc1ccc(Cc2nc(CCNS(=O)(=O)c3cc(C)c(C)cc3C)n[nH]2)cc1 | i
CCC1CN(Cc2nc(CCOC)no2)CCC(=O)N1Cc1ccccc1 (stereo not drawn) | i
CC1CCCCN1CCNC(=O)CCc1nnc2n(Cc3ccc(F)cc3)c(=O)c3ccccc3n12 (stereo not drawn) | +
Cc1ccc(CNC(=O)C2(C)Cn3cnc(C(=O)NCCc4ccc(Cl)cc4)c3C(=O)N2C2CC2)cc1 (stereo not drawn) | i
CN(Cc1cccc(OC(F)(F)F)c1)C(=O)C1(c2ccc(Cl)cc2)CCOCC1 | i
Cc1cnc(CCNC(=O)C2(c3ccccc3)CC2)n1Cc1ccccc1 | ?
O=C(NC1CCCCC1)N1CCc2n[nH]c(=O)n2CC1 | i
Cc1nc(-c2cn(C3CCCN(C(=O)c4cccc(Br)c4)C3)nn2)no1 (stereo not drawn) | i
O=C1NC(=O)C(c2ccccc2[N+](=O)[O-])=C1Nc1ccc(O)c(Cl)c1 | +
O=C(NCc1ccc(F)cc1)N1CCCC(Cc2noc(-c3cccnc3)n2)C1 (stereo not drawn) | i
COC(=O)C[C@H]1C(C)(C)[C@H](OC(=O)C(C)C)[C@@]2(O)C(=O)[C@]1(C)C1CC[C@]3(C)C(CC(=O)O[C@H]3c3ccoc3)[C@]13O[C@@H]32 (stereo partly drawn) | i
COc1ccc(CNC(=O)c2ccc3c(=O)nc4c(-c5ccccc5)n[nH]n4c3c2)cc1 | i

(cont.)
SMILES | Methyltransferases
CC(C)(N)C(=O)N1CCN(c2nc(-c3ccccc3)nc3c2CCC3)CC1 | i
COc1ccc(-c2cc(C(O)C3CCCCN3)c3ccccc3n2)cc1 (stereo not drawn) | i
CC1CCC(N2C(=O)c3cc4occc4n3CC2(C)C(=O)NC2CCCCC2)CC1 (stereo not drawn) | i
COc1ccc(CC(=O)N2CCCC3(Cc4ccccc4CN3C(=O)C3CCCC3)C2)cc1 (stereo not drawn) | i
Cc1ccc(CNC(=O)c2ccc3c(=O)nc4c(-c5ccc(Cl)cc5)n[nH]n4c3c2)cc1 | i
